YopH PTP inh: inhibitors of Yersinia enterocolitica YopH tyrosine phosphatase; inhibition, %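 (about 10 µM by stock and volumes)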; hit rate 0.16% among 140,000; AID 898; fluorescence Ex485/Em525;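 active means inhibition of 50% or more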;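 further: controls were vehicle for no effect and minimum signal wells for full effect; inactives centre near -20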
Mtb bLac sens: beta-lactam sensitization of Mtb H37Rv; AID 434955; hit rate 0.27% among 330,000; M. tuberculosis H37Rv growth with meropenem, percent inhibition; hits of this screen are not shown here; inhibition, % at 25 µM;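 active means about 74% or more and at least 40 points above the plate without the antibiotic, then above 30% in a dose series; inconclusive means first-round hits that could not be retested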;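 further: growth measured after seven days incubation then overnight dye step; 0% = bacteria only wells and 100% = bacteria with antibiotic; twin plates without the antibiotic show which effects depend on it; some results filed as inactive read as strong as hits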
RecA splice inh: blocks M. tuberculosis RecA intein splicing. P9WHJ3. cell-free RecA intein splicing, fluorescence. inhibition, %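 (about 9 µM by stock and volumes)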. hit rate 0.75% among 290,000; in the data active means inhibition above about 30%; inconclusive means no clear call, values can overlap the other calls;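 further: 0% = vehicle wells and 100% = reference inhibitor control wells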
Target sequence (P9WHJ3 whole entry, looked up, canonical isoform): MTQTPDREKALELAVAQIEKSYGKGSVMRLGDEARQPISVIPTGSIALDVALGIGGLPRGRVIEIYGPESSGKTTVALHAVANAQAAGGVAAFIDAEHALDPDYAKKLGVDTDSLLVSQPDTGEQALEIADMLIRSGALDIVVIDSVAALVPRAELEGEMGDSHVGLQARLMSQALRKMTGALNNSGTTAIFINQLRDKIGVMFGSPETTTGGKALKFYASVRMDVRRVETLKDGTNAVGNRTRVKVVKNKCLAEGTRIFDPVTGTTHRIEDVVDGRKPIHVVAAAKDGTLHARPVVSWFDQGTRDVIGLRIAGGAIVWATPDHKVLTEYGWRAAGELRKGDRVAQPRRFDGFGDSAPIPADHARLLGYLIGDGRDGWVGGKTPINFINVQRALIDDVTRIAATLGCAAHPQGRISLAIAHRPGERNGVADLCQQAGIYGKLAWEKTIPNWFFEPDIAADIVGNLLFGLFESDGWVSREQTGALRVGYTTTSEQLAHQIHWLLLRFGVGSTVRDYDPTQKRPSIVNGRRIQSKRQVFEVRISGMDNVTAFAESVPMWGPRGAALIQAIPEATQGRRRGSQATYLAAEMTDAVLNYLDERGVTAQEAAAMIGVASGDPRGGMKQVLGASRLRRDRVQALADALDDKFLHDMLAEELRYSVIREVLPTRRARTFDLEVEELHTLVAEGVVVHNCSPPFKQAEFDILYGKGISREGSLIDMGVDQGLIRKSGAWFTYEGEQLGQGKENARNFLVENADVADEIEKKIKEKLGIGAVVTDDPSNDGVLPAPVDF
Mtb H37Rv: M. tuberculosis H37Rv growth inhibitors, H37Rv strain (AID 1626); M. tuberculosis H37Rv growth inhibition; higher % means a stronger effect; inhibition, % at 10 µM, or IC50 in µM where a hit was titrated; hit rate 0.95% among 220,000;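 active means confirmed in a dose series; inconclusive means inhibition above 80% but not taken into the dose series; inactive means below 80% or under 30% at every dose of the series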;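 further: bacteria incubated seven days before Alamar blue readout; 0% = bacteria only wells and 100% = bacteria with antibiotic wells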
Arbovirus inh: antivirals against arbovirus infection; arbovirus infection cell-based antiviral screen; hit rate 0.37% among 200,000; inhibition, % at 10 µM; AID 1251;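 active means inhibition from about 30%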;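 further: bluetongue infection of BSR cells; cell survival read as ATP light after 72 h; 0% = infected wells without compound and 100% = uninfected wells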
Arbovirus inh repeat: recorded beside Arbovirus inh, whose call it bears; inhibition, %; measured here: 10K subset replicate screen; many hits read low in the repeat;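 first of two repeat runs on a subset; 0% = infected and 100% = uninfected wells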
* marks the source's active call; other numbers are inactive results; ? = inconclusive; / = not tested or not shown.

SMILES	YopH PTP inh	Mtb bLac sens	RecA splice inh	Mtb H37Rv	Arbovirus inh	others
O=C(NC1CCCCCC1)c1cccs1	-34	12	5.2	4%	5
CC(=O)CCc1ccc2oc(C(=O)O)c(C)c2c1	-56	12	-3.6	-5%	0
O=C(NCCC1=CCCCC1)C1CCN(S(=O)(=O)c2ccccc2)CC1	/	-4	1.2	-1%	-4
COc1ccc(-c2nn(CCC#N)cc2/C=N/O)cc1	/	-7	-0.4	-4%	-1
CC(NC(=O)CCNC(=O)N1CCn2c1nc1ccccc12)c1ccccc1 (configuration not stated)	/	3	-3.6	/	/
CCN1C/C(=C/c2ccc(OC)c(O)c2)C(=O)/C(=C/c2ccc(OC)c(O)c2)C1	/	-2	1.7	2%	-30
O=C(NC1CCS(=O)(=O)C1)/C(=C/c1ccco1)NC(=O)c1ccccc1 (configuration not stated)	/	-1	1.5	-11%	-2
O=C(C1CCCN1S(=O)(=O)c1cccc2nsnc12)N1CCN(c2ccccc2)CC1 (configuration not stated)	/	2	-0.4	/	/
CCOC(=O)c1c(NC(=O)c2ccc(N3C(=O)[C@@H]4[C@H](C3=O)[C@H]3C=C[C@@H]4C3)cc2)sc2c1CCCC2	-28	28	-4.3	-6%	-5
COc1ccc(C(=O)N/N=C2\SCC(=O)N2Cc2ccc3c(c2)OCO3)c(OC)c1	-26	4	-1.8	2%	-16
CN1CCN(c2nc(N3CCN(c4ccccc4)CC3)ncc2F)CC1	-8	-3	0.1	-4%	25
CC(=O)CSc1nc(-c2cccs2)c(C#N)c(=O)[nH]1	/	/	0.7	0%	-5
Cc1ccc(N=c2c([N+](=O)[O-])nn(-c3ccccc3)n2O)c(C)c1	12	46	-1.0	2%	-11
CCCOc1ccc(-c2nnc(-c3ccco3)o2)cc1	-39	12	2.3	-3%	0
O=C(CSc1nnc(C2CC2)n1Cc1ccccc1)c1ccc(S(=O)(=O)N2CCOCC2)cc1	-66	1	6.1	4%	10
COC(=O)C1NC(=O)N2C(C(=O)OC)C(C)(C)S[C@H]12 (some centres not stated)	/	-3	-1.9	3%	/
Cc1ccc(S(=O)(=O)CCC(=O)OCC(=O)N2CCN(S(=O)(=O)c3ccccc3)CC2)cc1	/	-1	0.6	/	/
COc1ccc(C(=O)NCCc2cc3c(OC)ccc(OC)c3[nH]c2=O)cc1OC	/	-3	0.9	-1%	3
Cc1cc(C)n2nc3ccccc3c2n1	-6	0	-2.0	-10%	-5
C=C1N(CCCCCC(=O)O)C(=O)OC12CCCCC2	-21	-16	-1.9	-3%	3

Random excerpt: three compounds from above.
SMILES	YopH PTP inh	Mtb bLac sens	RecA splice inh	Mtb H37Rv	Arbovirus inh	others
O=C(NC1CCS(=O)(=O)C1)/C(=C/c1ccco1)NC(=O)c1ccccc1 (configuration not stated)	/	-1	1.5	-11%	-2
CCCOc1ccc(-c2nnc(-c3ccco3)o2)cc1	-39	12	2.3	-3%	0
CC(=O)CSc1nc(-c2cccs2)c(C#N)c(=O)[nH]1	/	/	0.7	0%	-5

More records
SMILES	YopH PTP inh	Mtb bLac sens	RecA splice inh	Mtb H37Rv	Arbovirus inh	others
N[C@@H](Cc1cc(Br)c(O)c(Br)c1)C(=O)O	-39	-1	-4.0	/	7
COc1ccc(Cc2noc(CN(C)CC3(N4CCOCC4)CCCCC3)n2)cc1OC	/	-7	1.2	8%	4
O=C1c2ccccc2C(=O)N1CCCCCc1nc(-c2ccccc2)no1	-10	1	-1.1	-12%	-3
CCC1CCCCN1C(=O)c1sc2nc(C)nc(N(CC)CC)c2c1C (configuration not stated)	/	3	3.2	0%	-9
O=C(NCCc1ccccn1)c1cc(-c2cccc3ccccc23)nc2ccccc12	-4	3	1.5	9%	-7
CCCCC(=O)Nc1ccc(NC(=O)c2ccccc2[N+](=O)[O-])cc1OC	-28	-3	-2.0	14%	-2
Cc1ccc(S(=O)(=O)NC(CC(C)C)C(=O)N2CCCC2)cc1 (configuration not stated)	/	0	-2.0	/	/
Cc1ccc(O)c(-c2cc(-c3ccc(F)cc3)no2)c1	/	3	-3.0	/	/
COc1c(C)cc(S(=O)(=O)NCc2ccccn2)c(C)c1C	/	2	0.2	/	/
COc1cccc(OCc2cc(C(=O)NCc3ccccn3)no2)c1	/	0	4.0	/	/
CC(C)(C)c1cc(C(=O)N2CCc3ccccc32)ccn1	-18	-5	1.0	8%	-2
O=C(Cc1ccccc1)N/N=C/c1ccc(S(=O)(=O)O)o1	/	6	-2.3	2%	/
CCOc1ccc(C(C(=O)NCC2CCCO2)N(C(=O)c2snc(C(N)=O)c2N)c2ccc3c(c2)OCCO3)cc1 (configuration not stated)	/	7	0.3	/	/
COc1ccccc1C(=O)Nc1ccc(S(=O)(=O)Nc2cnc3ccccc3n2)cc1	/	0	-1.2	/	/
Cc1cc2ncc(C(=O)Nc3ccsc3C(=O)O)c(C)n2n1	/	-2	0.5	-1%	7
CN(C)CCCNc1oc(-c2ccccc2)nc1C#N	-33	26	0.6	-3%	10
CCCS(=O)(=O)N1CCc2cc(OC)c(OC)cc2C1	-4	5	-1.5	-5%	4
Cc1c(OC(C)C(=O)NCCN2CCOCC2)ccc2c3c(c(=O)oc12)CCCC3 (configuration not stated)	/	0	-0.8	/	/
Cc1cccc2nc(CSc3ccccc3C(=O)O)cn12	-20	5	-1.8	0%	-2
CCc1ccc(C(=O)NC(=S)Nc2ccc3c(c2)OCCO3)cc1	-29	51	2.6	8%	17
CCOC(=O)C(=CNCC(=O)O)C(=O)OCC	-39	-2	-3.9	-4%	4
Cc1ccc(S(=O)(=O)Nc2cccc(-n3cnnn3)c2)cc1	/	?	3.6	/	/
COc1cc(NC(=O)CN2c3ccccc3CC2C)cc(OC)c1OC (configuration not stated)	-3	-1	-3.7	/	12
CC(C)CCn1c(=O)c(C(=O)N/N=C/c2cccc(F)c2)c(O)c2ccccc21	-20	100	-0.7	/	0
COC(=O)C1=C(COc2ccccc2)NC(=O)NC1c1ccc(Br)cc1 (configuration not stated)	-36	48	1.6	-2%	-7
COc1cc2c3c(c1OC)C1(C=CC(=O)C=C1)CC3N(C(=O)CCC(=O)O)CC2 (configuration not stated)	/	4	4.6	-7%	/
Cn1c(=O)c2c(nc(N3CCc4ccccc4C3)n2Cc2ccccc2F)n(C)c1=O	-24	-4	0.6	11%	16
O=C(COc1ccccc1)N1CCN=C1SCc1ccc(F)cc1	/	7	2.5	-3%	/
Cc1ccc(NC(=S)N2CCCCCC2)c(C)c1	/	2	2.1	/	/
O=C(NCc1ccccc1)c1ccc(Cn2cc(C(F)(F)F)ccc2=O)cc1	-12	-2	-2.3	-7%	-2
CC(NC(=S)NCCc1ccccc1)C(c1cccs1)N1CCN(C)CC1 (configuration not stated)	-41	5	-2.7	6%	5
C[C@H]1C[C@@H]2[C@H]([C@@H](O)C[C@@]3(C)[C@H]2CC[C@]3(O)C(=O)CO)[C@@]2(C)C=CC(=O)C=C12	-29	-3	0.7	-15%	19
CCOC(=O)c1ccc2ncc(C(=O)OCC)c(NCc3ccco3)c2c1	-44	62	-0.5	6%	-7
CC(NC(=O)NC(=O)c1ccc(Cl)cc1)c1ccccc1 (configuration not stated)	/	-7	1.7	/	/
O=C(NC1=NCCS1)C1COc2ccccc2O1 (configuration not stated)	-27	-4	-1.0	-3%	0
COc1cc(CN2CCN(C(=O)c3ccc(-c4ccccc4)cc3)CC2)cc(OC)c1OC	/	5	1.6	-1%	2
CC1CC(C)CN(C(=O)c2ccc(CSc3nc4ccncc4[nH]3)cc2)C1 (configuration not stated)	-37	0	0.4	/	13
O=C(CCNC(=O)c1ccccc1Cl)Nc1nccs1	/	0	0.4	-18%	3
CN1C(=O)/C(=C/c2ccccc2F)Sc2ccc(C(=O)N3CCCC3)cc21	/	80	7.0	/	/
COc1ccc(CCNCC(=O)Nc2ccc(C)c(Br)c2)cc1OC	/	38	1.0	/	/

Nothing new here: an excerpt of the list.
SMILES	YopH PTP inh	Mtb bLac sens	RecA splice inh	Mtb H37Rv	Arbovirus inh	others
COc1cc2c3c(c1OC)C1(C=CC(=O)C=C1)CC3N(C(=O)CCC(=O)O)CC2 (configuration not stated)	/	4	4.6	-7%	/
Cn1c(=O)c2c(nc(N3CCc4ccccc4C3)n2Cc2ccccc2F)n(C)c1=O	-24	-4	0.6	11%	16
O=C(COc1ccccc1)N1CCN=C1SCc1ccc(F)cc1	/	7	2.5	-3%	/

Carrying on.
SMILES	YopH PTP inh	Mtb bLac sens	RecA splice inh	Mtb H37Rv	Arbovirus inh	others
CCOc1ccc(S(=O)(=O)N2CCCC(C(=O)NC3CC3)C2)cc1Cl (configuration not stated)	/	-15	-0.4	/	/
CCn1c(CNC(=O)Cc2ccc(OC)cc2)nnc1SCC(=O)Nc1ccc(C(=O)O)cc1	/	-8	-0.9	-8%	0
Cc1ccc(CSc2nnc(-c3ccccn3)n2C)cc1	-54	-4	-2.3	-6%	6
NC(=O)c1ccc(-n2nnnc2Oc2ccccc2C(=O)N2CCOCC2)cc1	-27	-1	-0.7	2%	3
CCNC(=O)CN(Cc1ccccc1)S(=O)(=O)c1ccccc1	-39	4	-0.4	-2%	-1	Arbovirus inh repeat=2
CC(C)(C)c1ccc(OCCC(=O)OCC(=O)NC2CCCCC2)cc1	/	16	0.1	/	/
O=C1CCC(=O)N1N1C(=O)C2C3c4ccccc4C(c4ccccc43)C2C1=O (configuration not stated)	/	4	-1.9	1%	-2
COc1ccc(Nc2ccc(N3C(=O)CCCC3=O)cc2[N+](=O)[O-])cc1OC	-37	2	2.2	-5%	2
CCOc1ccc(NC(=O)COC(=O)Cc2ccc(S(=O)(=O)N3CCOCC3)s2)cc1	-22	-6	1.3	-1%	4
CCC(=O)/C=C1/Sc2ccc(OC)cc2N1CC	-29	5	-2.3	3%	-6
COc1ccc(CCNC(=O)COC(=O)Cc2cc(OC)c(OC)c(OC)c2)cc1	/	0	-1.0	4%	-2
CCN(CC)CCCNC(=O)c1nn2c(C(F)(F)F)cc(-c3ccccc3)nc2c1Cl	/	-2	0.0	/	/
O=C(Oc1ccccc1/C=C\C(=O)c1cc2ccccc2o1)c1ccccc1	7	63	-2.4	?	-37
O=C(OCc1ccccc1)c1ccc(Br)o1	-12	62	-0.6	6%	6
O=C(CN1C(=O)c2cccnc2Oc2ccc(Cl)cc21)N1CCOCC1	/	?	-0.6	/	/
O=c1oc2ccccc2c(O)c1C=NCc1ccccn1	-19	3	/	-2%	4
CC(=O)NCCC(=O)Nc1nc(-c2ccc3c(c2)OCCO3)cs1	/	-6	-0.7	/	/
COC(=O)c1cc(OCC(=O)NC2CCCc3ccccc32)cc(C(=O)OC)c1 (configuration not stated)	/	-5	1.1	/	/
COc1ccc(NC(=O)CSc2nnc(NC(=O)c3ccccc3C(=O)O)s2)cc1	/	-3	-0.2	-9%	6
NC(N)=NC1=NC(=O)C(Cc2ccccc2Cl)S1 (configuration not stated)	/	-3	0.0	-9%	/
O=C1/C(=C/c2cccc([N+](=O)[O-])c2)N2CCC1CC2	-24	35	-2.7	4%	6
COc1cccc(C2C(C(=O)c3sc(C)nc3C)=C(O)C(=O)N2CCN2CCOCC2)c1OC (configuration not stated)	-31	-9	1.6	2%	4
CCCCn1c(-c2cccc(C)c2)nc2cc3[nH]c(=O)c(C(C)C)nc3cc21	/	99	8.0	/	/
O=C(NC(=O)N1CCN(c2ccc([N+](=O)[O-])cn2)CC1)c1c(Cl)cccc1Cl	/	-8	-1.1	1%	/
O=C(Oc1ccc2ccccc2c1Cl)N1CCCC1	-20	6	3.4	8%	0
O=C(COc1cccc(Cl)c1)Nc1nc(-c2ccc(S(=O)(=O)N3CCOCC3)cc2)cs1	0	/	4.0	1%	-8
COc1ccc(Cn2c(C3CC3)nc3ccc(NC(=O)c4ccco4)cc3c2=O)cc1	-45	-5	0.8	-3%	-6
Cc1ccc(C(=O)Nc2cccc(C(F)(F)F)c2)cc1NC(=O)c1cnnc2ccccc12	/	-6	1.1	-8%	/
Fc1ccc(-c2nc3ccccc3[nH]2)cc1	/	2	0.1	-2%	-7
NCC(c1ccccc1Cl)c1c[nH]c2ccccc12 (configuration not stated)	/	0	6.2	/	/
N#Cc1cccc(NC(=O)c2ccccc2C(=O)O)c1	-36	-9	-7.0	7%	3
COc1ccc2nc(NC(=O)CCNS(=O)(=O)c3ccc4c(c3)oc(=O)n4C)sc2c1	-50	-4	-2.5	/	8
CCSc1nnc2c(n1)[nH]c1c(C)cccc12	-48	2	1.1	2%	1	Arbovirus inh repeat=-17
COc1ccccc1NC(=O)CN1CCN(c2ccccc2OC)CC1	/	9	-0.8	11%	4
CC(=O)C1=C(C)NC(=O)NC1c1cccs1 (configuration not stated)	-18	-3	1.5	-8%	0
CC1=C(C(=O)N2CCOCC2)C(c2cccc(C)c2)NC(=S)N1 (configuration not stated)	-21	7	-2.8	-8%	-2
COC(=O)c1ccc(C2/C(=C(\O)c3cccc(OC)c3)C(=O)C(=O)N2CCCN2CCOCC2)cc1 (configuration not stated)	-21	-2	1.0	0%	-4

Not all compounds are listed; rates above refer to the full screens.
